Screening data from PubChem.
MgrA DNA FP: S. aureus MgrA-DNA binding modulation; actives 0.13% (n = 84,000); fluorescence polarization; inhibition, %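 (about 10 µg/mL by stock and volumes)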;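 active means above 50% in either of two replicates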;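 further: 0% = protein plus DNA without compound and 100% = DNA alone without protein; higher means less MgrA bound to DNA so lower polarization; one replicate is shown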
S aureus helic: S. aureus DNA helicase inhibition; purified S. aureus helicase, fluorescence unwinding assay; about half of the hits fall short of the stated cut; inhibition, %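 (tested at about 80 µM)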; actives 0.05% (n = 120,000);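 active means both duplicates at 50% or more, or one of them with a favoured structure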;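 further: 0% = mean of negative control wells and 100% = mean of positive control wells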
An asterisk follows results filed as active; x = no result given; & = joins results of further samples. This is a subset (hit frequency here may not be typical).

Sample of the layout, 22 compounds:
SMILES	MgrA DNA FP	S aureus helic
COCCN1Cc2cccc(C(=O)N3CCN(c4ccc(F)cc4)CC3)c2C1=O	11	9
O=C1C2=C(Nc3[nH]c(=O)[nH]c(=O)c3C2c2ccccc2)c2ccccc21 (centres undefined)	x	-13
COc1cc(CNC(=O)c2ccccc2SC)cc(OC)c1OC	-0.6	0
O=C(CSc1nnc(-c2ccco2)c(-c2ccco2)n1)Nc1ccc(C(=O)O)cc1	x	3
C=CCn1c(C23CC4CC(CC(C4)C2)C3)n[nH]c1=S	x	16
Cc1ccccc1N1C(=O)CSC1=C(C#N)C#N	1.9	9
CC1(NC(=O)N2CCOCC2)CCS(=O)(=O)C1 (centres undefined)	x	-28
CCOC(=O)c1ccccc1Oc1c(F)c(F)nc(NCCO)c1F	-0.2	7
CCOC(=O)c1cnc2c(c(C)nn2C)c1Oc1ccc(F)cc1	-2.1	x
O=C1CC(n2c(=O)oc3ccccc32)C2COC1O2 (centres undefined)	12	1
Cc1ccc(SC(=O)c2ccc(OC(F)(F)F)cc2)cc1	-2.7	x
O=C(c1ccco1)N(Cc1ccco1)C1CCS(=O)(=O)C1 (centres undefined)	-2.7	5
CCOC(=O)c1c(P(=O)(N2CCOCC2)N2CCOCC2)noc1N	2.5	-19
CCOC(=O)c1c(C)c(C(=O)N2CCCC2)c(C)n1CC	x	3
CCOc1ccc(C(=O)Nc2c3c(nn2-c2cccc(Cl)c2)CS(=O)C3)cc1 (centres undefined)	x	11
CCC(CC)C(=O)Nc1cccc(C(=O)Nc2ccc3c(c2)OCCO3)c1	-1.5	8
COc1ccc(NC(=O)C2C(=O)N(C)C3(C)CC2c2ccccc2O3)cc1 (centres undefined)	x	7
COc1ccc(C(=O)CSc2nccc(=O)[nH]2)cc1	-3.0	17
O=C(OCc1ccc(Cl)cc1Cl)C(O)c1ccccc1 (centres undefined)	0.8	11
CCOC(=O)CCc1c(CC(=O)OCC)c[nH]c1/C=N/O	61*	x
CCOc1nc(N2CCCCC2)nc(-n2cc(-c3ccccc3)nn2)n1	x	6
N#Cc1c(NC(=O)c2cc(C3CC3)on2)sc2c1CCC2	x	17

All compounds of this part (from the top)
SMILES	MgrA DNA FP	S aureus helic
COCCN1Cc2cccc(C(=O)N3CCN(c4ccc(F)cc4)CC3)c2C1=O	11	9
O=C1C2=C(Nc3[nH]c(=O)[nH]c(=O)c3C2c2ccccc2)c2ccccc21 (centres undefined)	x	-13
COc1cc(CNC(=O)c2ccccc2SC)cc(OC)c1OC	-0.6	0
O=C(CSc1nnc(-c2ccco2)c(-c2ccco2)n1)Nc1ccc(C(=O)O)cc1	x	3
C=CCn1c(C23CC4CC(CC(C4)C2)C3)n[nH]c1=S	x	16
Cc1ccccc1N1C(=O)CSC1=C(C#N)C#N	1.9	9
CC1(NC(=O)N2CCOCC2)CCS(=O)(=O)C1 (centres undefined)	x	-28
CCOC(=O)c1ccccc1Oc1c(F)c(F)nc(NCCO)c1F	-0.2	7
CCOC(=O)c1cnc2c(c(C)nn2C)c1Oc1ccc(F)cc1	-2.1	x
O=C1CC(n2c(=O)oc3ccccc32)C2COC1O2 (centres undefined)	12	1
Cc1ccc(SC(=O)c2ccc(OC(F)(F)F)cc2)cc1	-2.7	x
O=C(c1ccco1)N(Cc1ccco1)C1CCS(=O)(=O)C1 (centres undefined)	-2.7	5
CCOC(=O)c1c(P(=O)(N2CCOCC2)N2CCOCC2)noc1N	2.5	-19
CCOC(=O)c1c(C)c(C(=O)N2CCCC2)c(C)n1CC	x	3
CCOc1ccc(C(=O)Nc2c3c(nn2-c2cccc(Cl)c2)CS(=O)C3)cc1 (centres undefined)	x	11
CCC(CC)C(=O)Nc1cccc(C(=O)Nc2ccc3c(c2)OCCO3)c1	-1.5	8
COc1ccc(NC(=O)C2C(=O)N(C)C3(C)CC2c2ccccc2O3)cc1 (centres undefined)	x	7
COc1ccc(C(=O)CSc2nccc(=O)[nH]2)cc1	-3.0	17
O=C(OCc1ccc(Cl)cc1Cl)C(O)c1ccccc1 (centres undefined)	0.8	11
CCOC(=O)CCc1c(CC(=O)OCC)c[nH]c1/C=N/O	61*	x
CCOc1nc(N2CCCCC2)nc(-n2cc(-c3ccccc3)nn2)n1	x	6
N#Cc1c(NC(=O)c2cc(C3CC3)on2)sc2c1CCC2	x	17
O=C(c1ccc(Br)cc1)c1cc2cc(Cl)cc(Cl)c2o1	-0.6	x
Cc1cccn2cc(COc3ccc(Cl)cc3)nc12	x	-8
COc1ccc(-c2cc(C(F)(F)F)nc(N3CCc4ccccc4C3)n2)cc1OC	2.5	18
SMILES	MgrA DNA FP	S aureus helic
CN(C(=O)Cn1c(=O)cnc2ccccc21)C1CCS(=O)(=O)C1 (centres undefined)	x	8
CCCCS(=O)(=O)c1nc2c(cc1C#N)CCCC2	2.2	6
CCCC1CC(CSc2nc3ccccc3[nH]2)OC1=O (centres undefined)	x	3
COC(=O)c1ccc(-c2nc(-c3ccccc3)no2)cc1	-3.4	2
O=C(O)CCSc1nnnn1-c1ccccc1	-3.0	6
CCOC(=O)Nc1cc(C)ccc1OC	-1.9	9
CSc1nnc(CCNS(=O)(=O)c2ccc(Br)cc2)n1C	-3.8	18
CCOc1ccc(NC(=S)N2CCn3cccc3C2c2ccc(OC)cc2)cc1 (centres undefined)	0.9	6
CS(=O)(=O)N(CC(=O)Nc1ccccc1)C1CCCCC1	x	2
CCSCCOC(=O)C1=C(C)NC(=O)NC1c1ccc(OCc2ccccc2)cc1 (centres undefined)	-1.0	x
Fc1ccc(-c2nnc(CN3CCCC3c3nc4ccccc4s3)o2)cc1 (centres undefined)	x	-6
N/C(=N\O)c1ccc(O)cc1	x	0
O=C(Nc1cccc2c1C(=O)NC2=O)c1ccc(S(=O)(=O)N2CCOCC2)cc1	x	-5
CN=C1S/C(=C\c2sccc2C)C(=O)N1C	0.6	8
O=C(COc1ccc2c3c(c(=O)oc2c1)CCC3)c1ccccc1	x	17
CC(=O)NCCc1ccc(S(=O)(=O)N2CCCCC2)cc1	0.1	2
CC(=O)c1cc(F)c(Cl)cc1Cl	0.6	x
O=C(OCc1cc(=O)n2c(n1)sc1ccccc12)C1=NN(c2ccccc2)C(=O)CC1	x	7
O=c1[nH]c(=S)[nH]c2c1C(C1CCCCC1)Cc1ccccc1-2 (centres undefined)	-1.3	6
O=C(O)CSc1ccc2nnc(-c3ccc(F)cc3)n2n1	3.2	14
O=C(O)C1Cc2ccccc2CN1C(=O)COc1ccc(Cl)cc1Cl (centres undefined)	x	-1
COc1ccc(CCNC(C)=O)cc1	3.5	1
COc1ccc(Cn2c(=O)[nH]c3cc(C(=O)O)ccc3c2=O)cc1	x	-11
CC(COc1ccc2c(c1)OCO2)NC(=O)c1cn(-c2ccc(F)cc2)nn1 (centres undefined)	x	-11
COc1ccc(S(=O)(=O)N(C)c2ccc(C(=O)N3CCCCC3)cc2)cc1	-0.5	6
SMILES	MgrA DNA FP	S aureus helic
CCn1c(C)nc2cc(C#N)ccc21	x	6
CCOc1ccc(S(=O)(=O)N(C)CC(=O)NCc2ccco2)cc1Cl	8.9	7
CCOn1c(=O)c(=O)n(OC)c2ccccc21	1.6	2
COC(=O)c1ccc(NS(C)(=O)=O)cc1	x	-13
CC(OC(=O)c1ccc(-n2cnnn2)cc1)C(=O)NC1CCCc2ccccc21 (centres undefined)	x	5
CC(=O)N1c2ccc(S(=O)(=O)NC(CC(=O)O)c3ccccc3)cc2CC1C (centres undefined)	x	0
Nc1cccc(F)c1CNCC(O)COc1ccc(Cl)c(Cl)c1 (centres undefined)	-1.2	x
O=C(Oc1ccccc1N1CCCCC1)C1CCN(c2nccc(C(F)(F)F)n2)CC1	0.0	x
CCN(Cc1ccccc1)C(=O)c1ccc2c(c1)NC(=O)c1ccccc1S2	x	9
COc1ccc(-c2cc(C(F)(F)F)nc(S(=O)(=O)CCCC(=O)Nc3ccc4c(c3)OCO4)n2)cc1OC	x	-27
O=C(c1cc2ccccc2oc1=O)N(Cc1ccco1)C1CCS(=O)(=O)C1 (centres undefined)	x	-15
CC1=NN(C(=O)C2CCCCC2)C(O)(c2ccccc2)C1 (centres undefined)	1.7	7
CCCS(=O)(=O)Nc1cc(S(=O)(=O)CC)ccc1O	x	-13
O=C1Cc2ccccc2C(=O)N1CCc1ccccc1	-3.6	21
O=C(NCc1nc(-c2ccccc2F)no1)c1ccc2c(c1)OCO2	x	-15
COC(=O)c1c(C)ncc2c1COC(C)OC2 (centres undefined)	-0.9	10
FC(F)(F)c1cc(N=NN2CCOCC2)cc(C(F)(F)F)c1	-0.8	x
CCN1C(=O)C(O)(CC(=O)c2ccc(F)cc2)c2ccccc21 (centres undefined)	x	29
CCc1cccc(NC(=O)CCCn2c(=O)[nH]c3ccsc3c2=O)c1	-1.5	6
CCOC(=O)c1oc2ccccc2c1NC(=S)NC(=O)CN1C(=O)CCC1=O	x	-1
CC(C)c1ccc(C2C=C(c3ccccc3)Nc3ncnn32)cc1 (centres undefined)	x	-5
CCCCCn1cc2c(c1-c1ccccc1Cl)c(=O)n(C)c(=O)n2C	x	20
C=CC(C)N1C(=O)c2ccccc2C1=O (centres undefined)	-0.9	x
Cc1ccccc1NC(=O)Nc1ccon1	1.0	18
CC1(C(=O)NC2CCCCCCC2)Cc2ccccc2C(=O)N1CCCN1CCOCC1 (centres undefined)	x	-8
SMILES	MgrA DNA FP	S aureus helic
O=C(Nc1nc2ccccc2s1)c1ccc(S(=O)(=O)N2CCOCC2)cc1	1.2	10
CCCN(CCC)C(=O)Cn1ncn2c(cc3ccccc32)c1=O	x	5
CCOC(=O)CSC1C(=O)Nc2ccccc2N=C1c1ccccc1 (centres undefined)	-1.1	17
Nc1cc(C(Cl)=C(Cl)Cl)c(S(N)(=O)=O)cc1S(N)(=O)=O	-1.7	x
O=C(OC1CCOC1=O)c1ccc(Cl)cc1 (centres undefined)	3.8	-16
CCC(=O)Nc1c(C#N)c2nc3ccccc3nc2n1CCc1ccccc1	x	-43
C=C1SC(Nc2ccc(OC)cc2OC)=NC1(C)C	-1.0	x
Clc1ccc(C2C3CC=CC3c3cc(Cl)cc4c3N2CC2CC=CC42)cc1 (centres undefined)	2.0	x
Cc1ccc(NC(=O)C23CCC(C2)C(C)(C)C3=O)c(C)c1 (centres undefined)	1.2	-15
C=CCn1c(SCC(=O)c2ccc(C)cc2)nc2sc(CC)cc2c1=O	2.6	6
O=C(COc1ccc2c(c1)CCC2)NN1CCOCC1	0.5	0
CC1CCCN(c2cc(N(C)C)c([N+](=O)[O-])cc2F)C1 (centres undefined)	-3.9	x
CCOC(=O)c1c(C)n(C)c2ccc(O)cc12	x	30
CCOC(=O)C1CC(=O)OC12CCCCC2 (centres undefined)	1.5	x
CC(C)C(Nc1ccc(C(F)(F)F)cn1)C(=O)O (centres undefined)	0.6	-2
CCOC(=O)c1oc2ccccc2c1CN1CC(C)OC(C)C1 (centres undefined)	x	9
COc1ccc(C(=O)NCCSc2ccccn2)cc1	0.1	15
O=c1oc(-c2ccc(Cl)cc2Cl)nc2ccc(I)cc12	-0.5	x
O=C(NC1CCCCC1)c1cc(-c2ccco2)on1	0.1	5
CN(C)/C=C1/N=C(c2ccccc2)OC1=O	x	24
Cc1ccc(CN(C)C(=O)c2ccc(Oc3ccccc3)cc2)o1	x	-1
COc1ccc(C(=O)NCCc2nnc3ccc(SCC(=O)Nc4ccc(C)cc4C)nn23)cc1	0.2	4
O=C(O)CCC(=O)Nc1ccc(-c2csc(-c3ccccc3)n2)cc1	x	-18
Cc1cc(C)c(NC(=O)COC(=O)C2CCCCC2)c(C)c1	x	2
COc1cccc(N2C(=O)c3ccccc3C2C(=O)NC2CCCC2)c1 (centres undefined)	x	2
SMILES	MgrA DNA FP	S aureus helic
CC(C(=O)NC1CCCCCC1)C1Sc2ccccc2N(Cc2ccc(F)cc2)C1=O (centres undefined)	0.2	-8
O=C(CCS(=O)(=O)c1nc(-c2ccc3c(c2)OCO3)cc(C(F)(F)F)n1)Nc1ccc(OC(F)(F)F)cc1	x	-32
CN(Cc1cccc(F)c1)C(=O)C1CC(=O)N(Cc2ccco2)C1 (centres undefined)	x	-7
COc1ccc(/C=N/NC(=O)c2ccncc2)cc1	-0.7	x
CCn1c(=NC(=O)CSCC(=O)NC2CCCCC2)sc2cc(C(=O)OC)ccc21	3.6	12
O=C(CCc1ccccc1)NC1CCS(=O)(=O)C1 (centres undefined)	x	-7
CCCCC1CCC(C2CCC(C(=O)O)CC2)CC1 (centres undefined)	0.7	9
Cc1ccc(S(=O)(=O)CC(=O)NC2CC2)cc1	x	10
O=C(O)CC1(CC(=O)Nc2ccc(I)cc2F)CCCCC1	1.5	x
N#CCSc1nnc(-c2ccc(Cl)cc2)n1Cc1ccco1	x	-14
CNC(=S)N1CCSC1=Nc1ccccc1C	x	5
O=S(=O)(Cc1ccc(C(F)(F)F)cc1)c1ccc(Cl)cc1	-9.8	x
CSc1nnc(NC(=O)/C=C/c2cccc(F)c2)s1	x	-14
COc1nc(N)nc(C23CC4CC(CC(C4)C2)C3)n1	-3.2	x
Cc1ccc(S(=O)(=O)N2CCCC2C(=O)NCc2ccccc2Cl)cc1 (centres undefined)	-1.8	-18
COc1ccc(C(=O)NCCc2ccc(O)cc2)c(OC)n1	-1.3	7
CC1CC(C)CN(S(=O)(=O)c2ccc(CN3C(=O)c4cccnc4C3=O)cc2)C1 (centres undefined)	x	14
Cc1c(N(C)C(=S)SCC(=O)O)c(=O)n(-c2ccccc2)n1C	x	18
O=c1nc(SCCN2CCCCC2)nc2ccccn12	x	4
CC(C)Cn1cc(I)c(=O)n(CC(C)C)c1=O	x	-10
CN1CCN(NS(=O)(=O)c2ccc(Br)s2)CC1	x	-20
Cc1cc(Cl)cc(C)c1OCCn1ccnc1	x	0
Cc1cc(=O)[nH]c(-c2ccccn2)n1	1.7&3.9	x
CS(=O)(=O)Cc1ccc(Oc2ccc(NS(C)(=O)=O)cc2)cc1	3.3	4
CCSC1=N/C(=C\c2ccsc2)C(=O)S1	0.5	10
O=c1ccc(=O)n(-c2ccccc2)[nH]1	2.1	x
Cc1c(C)c(C)c(CSC2=NCCS2)c(C)c1C	0.8	x
CC(Oc1ccccc1)C(=O)Nc1ccc(-n2nncc2-c2ccccc2)cc1 (centres undefined)	x	10
COc1ccc2[nH]cc(CCNS(C)(=O)=O)c2c1	x	8
